# Assay outcomes (PubChem BioAssay)
# VACV Venus inh – qHTS for Stage-Specific Inhibitors of Vaccinia Orthopoxvirus: Venus Reporter Primary qHTS; Vaccinia virus Venus reporter expression, fluorescence; AID 720580, 2013; 330,000 compounds, 0.46% hits; Potency, µM (top dose mostly 36.5 µM), for inactives: at the highest dose activity change, negative = inhibition, most hits filed as inhibitors; active means well fitted inhibition curve with a large enough effect; inconclusive means small, poorly fitted or top-dose-only effect; inactive means no such curve, though single readings can be large or run the other way; tested in A549 cells; note: nearly all actives have a fitted effect of over 30% in size; inactives centre near -10
# Vaccinia mCherry – qHTS for Stage-Specific Inhibitors of Vaccinia Orthopoxvirus: mCherry Reporter Primary qHTS; Vaccinia virus mCherry reporter infection, fluorescence; about a quarter of the inactives have no number; Potency, µM (highest dose often 36.5 µM), inactives show top-dose activity change, negative = inhibition, hits mostly inhibitors; 310,000 compounds, 0.63% hits; active = well fitted inhibition curve with a large enough effect; inconclusive = small, poorly fitted or top-dose-only effect; inactive = no such curve, though single readings can be large or run the other way; tested in A549 cells; note: nearly all actives have a fitted effect of over 35% in size; inactives centre near -10
# * hit, by the source's call; i = inactive; u = inconclusive; x = no result given; & = joins results of further samples; [ ] = another dose, or the depositor's remark. % is set by controls: 0 for no effect and ±100 for the full control effect; potency is the fitted concentration of half-maximal effect.
mol	Vaccinia mCherry	VACV Venus inh
COc1ccc(CCC(=O)Nc2nc3c(s2)CN(C)CC3)cc1OC	-13%	0%
Cc1ccc(C)c(Cn2c3ccccc3c3cnn(CC(=O)NC4CCCCCC4)c(=O)c32)c1	-1%	-9%
O=C(COC(=O)CCc1nc2ccccc2n1-c1ccccc1)Nc1cccc(Cl)c1	u	-13%
CC(=O)Nc1ccc(NC(=O)C(C)OC(=O)CC23CC4CC(CC(Br)(C4)C2)C3)cc1 (configuration not stated)	i	9%
O=C(NCCN1CCOCC1)C(=O)NCC1OCCN1S(=O)(=O)c1ccc(Cl)cc1 (configuration not stated)	-10%	3%
CN(C)CCCNc1cc(N2CCN(C)CC2)ncn1	-10%	-9%
CCC1CCCCN1S(=O)(=O)c1ccc(N2CCCCS2(=O)=O)cc1 (configuration not stated)	17%	4%
O=C(Nc1ccncc1)c1ccc(S(=O)(=O)Nc2ccccc2)cc1	i	-8%

# Going on with the list:
mol	Vaccinia mCherry	VACV Venus inh
O=C(CN1CCCCC1)Nc1nnc(-c2ccccc2)s1	-12%	1%
COc1cc(OC)cc(C(=O)NCC(=O)OCC(=O)Nc2ccc3c(c2)OCO3)c1	-12%	-10%
CC(C)C1N(C(=O)CN2CCCC2)CCN1S(=O)(=O)c1ccccc1 (configuration not stated)	x	-13%
O=C(O)c1cn(C2CC2)c2cc(N3CCN(S(=O)(=O)c4ccc5c(c4)OCCO5)CC3)c(F)cc2c1=O	i	-1%
CCOC(=O)/C=c1\s/c(=C\c2ccc(C#N)cc2)c(=O)n1CC(=O)Nc1cccc(C)c1C	i	-6%
Fc1ccccc1/C=N/n1cc(-c2ccccc2)[nH]c1=S	-21%	18%
CCn1nc(NC(=O)C2CCCO2)c2cc3cc(C)ccc3nc21 (configuration not stated)	u	u
CCCc1c(-c2ccccc2)ncn1Cc1ccccc1OC	-10%	2%

# The list continues.
mol	Vaccinia mCherry	VACV Venus inh
Cc1ccc(CSC2=Nc3ccccc3C3=NC(CCC(=O)N4CCN(c5ccccc5)CC4)C(=O)N23)cc1 (configuration not stated)	-20%	-17%
C=CCN(C(=O)c1csnn1)C(C(=O)NCc1ccc(F)cc1)c1sccc1C (configuration not stated)	-15%	-4%
O=C(NC(=S)Nc1cccc2c(O)cccc12)c1ccco1	u	-13%
COc1ccccc1N1C(=O)C2C3C=CC(C3)C2(C)C1=O (configuration not stated)	x	-9%
CC1CCN(S(=O)(=O)c2ccc3c(c2)oc(=O)n3CC(=O)N2CCc3ccccc3C2)CC1	-15%	u
COc1cccc(Cn2cccc(NC(=O)Nc3cccc(C#N)c3)c2=O)c1	-22%	-12%
O=C(N/N=C\c1ccc(Oc2ccccc2)cc1)c1csnn1	i	-25%
Cc1ccc2occ(C(=O)c3ccco3)c(=O)c2c1	-4%	-11%

# Next part.
mol	Vaccinia mCherry	VACV Venus inh
CC(C)c1ccc2c(c1O)CCC1C3=C(CC[C@]21C)C(=O)OC3 (some centres not stated)	i	-17%
CCOc1ccc(C(=O)NC2CCN(C(=O)Nc3ccccc3OC)CC2)cc1	-20%	-8%
Cc1cccc(-n2cc(-c3ccccc3)c3c(N4CCOCC4)ncnc32)c1	i	-2%
CCOc1ccc(CCNC(=O)CSc2nnnn2-c2ccc(C)cc2C)cc1OCC	-20%	-9%
Cc1cc(C(=O)NC2CCCc3ccccc32)ccc1[N+](=O)[O-] (configuration not stated)	-19%	-16%
COC(=O)C1=C(C)N(CCc2ccc(OC)c(OC)c2)C(=O)C1	x	-11%
O=C(Nc1ccc2nc(SCc3ccccc3)sc2c1)c1ccccc1F	-28%	-17%
CCOc1ccc(Oc2ccc(Cl)cc2NC(=O)CCNC(C)=O)cc1	i	-9%

# Continued.
mol	Vaccinia mCherry	VACV Venus inh
Cc1c(C(=O)Nc2ccc(S(N)(=O)=O)cc2)oc2ccc(Cl)cc12	3%	4%
CCn1nc(C)c(CN2CCN(Cc3ccc(OC)c(C)c3C)C(CCO)C2)c1C (configuration not stated)	i	-6%
c1ccc2nc(N3CCOCC3)cnc2c1	-2%[1.46 µM]	-22%
N=c1c2c(n(Cc3ccc(F)cc3)c3c1CCC3)CCC2	-29%	-29%
C/C(=N\NC(=O)c1ccc(Cl)cc1)c1cccc(NC(=O)C(C)C)c1	-20%	-17%
CCC(=O)Nc1cc(SCCO)cc([N+](=O)[O-])c1	-10%	-6%
Cc1cc(C)cc(N(C)S(=O)(=O)c2nnc(NC(=O)C(C)C)s2)c1	-11%	-23%
Cc1ccc(C(=O)N2CCC(Cc3ccccc3)CC2)cc1S(=O)(=O)N1CCOCC1	-4%	-19%

# (next part)
mol	Vaccinia mCherry	VACV Venus inh
CC(=O)N1CCN(S(=O)(=O)c2ccc(F)c(Cl)c2)CC1	i	11%
CN(C)c1ccc(C=NC2CCc3ccccc32)cc1 (configuration not stated)	12%	-15%
C1CCN(CCC2CCCCN2)CC1 (configuration not stated)	i	-17%
Nc1ncncc1-c1ccc2ccccc2c1	i	-14%
COc1cccc(NC(=O)c2cc(-c3ccc(C)o3)nc3ccccc23)c1	-3%	-12%
CC(=O)N/C(=N/c1nc(C)cc(C)n1)Nc1cccc(C)c1C	-22%	-10%
CCOC(=O)[C@H]1[C@H]2COc3ccc(Cl)cc3[C@@H]2N2C(=O)CN(Cc3ccc(OC)cc3)C(=O)[C@@]12C	i	-4%
O=C(/C=C\Nc1cccc(F)c1)c1ccc2c(c1)OCO2	-12%	-7%

# The results go on.
mol	Vaccinia mCherry	VACV Venus inh
O=C(CN1c2ccccc2Sc2ccccc21)NNC(=O)Nc1cccc(Cl)c1	u	u
CC(C)(C)c1ccc(CN2C(=O)c3ccccc3S2(=O)=O)cc1	-9%	-20%
COc1cc(O)c(C(CCN2CCN(c3ccccc3)CC2)c2cc(OC)c(OC)c(OC)c2)c(OC)c1 (configuration not stated)	2%	-24%
CC(C)(C)OC(=O)N1CCC[C@H]1C(=O)N1CCC[C@H]1C(=O)NCc1ccc(F)cc1F	-5%	9%
O=C(NCCS(=O)(=O)N1CCN(C(=O)c2ccco2)CC1)c1ccccc1	-1%	-9%
O=C(NCc1ccccc1)C(c1ccccc1F)N(CC1CCCO1)C(=O)c1ccccn1 (configuration not stated)	-13%	-7%
Cn1cc(C(=O)N2CCOCC2)c2ccccc21	-15%	-17%
Cc1cc(C)c(C(=O)C[n+]2cccc(C(N)=O)c2)c(C)c1	-26%	-12%

# Further results follow:
mol	Vaccinia mCherry	VACV Venus inh
CS(=O)(=O)c1ccc(C(=O)NC2CCCc3ccccc32)cc1 (configuration not stated)	-12%	2%
Cc1onc(-c2c(F)cccc2Cl)c1C(=O)N1CCc2ccccc2C1	i	-17%
CCCC[C@@H]1C[C@H]1[C@@H](NC(=O)c1cccs1)c1ccc(Cl)cc1	i	-4%
COc1ccc2cc(S(=O)(=O)N3CCCCCC3)ccc2c1	i	0%
COc1ccc(C(=O)C(C)OC(=O)c2cccc(S(=O)(=O)Nc3cc(Cl)c(OC)cc3OC)c2)cc1 (configuration not stated)	-9%	-25%
Cc1cc(OCC(O)CN2CCc3ccccc3C2)ccc1Cl (configuration not stated)	-25%	-29%
CC(C)(C)C(=O)Nc1ccccc1C(=O)Nc1cccnc1	x	-6%
COc1ccc(O)c(/C=c2/sc3nc4cc(C)c(C)cc4n3c2=O)c1	-26%	-20%

# Later entries.
mol	Vaccinia mCherry	VACV Venus inh
COc1ccc(-c2oc(=O)c3cc(OC)c(OC)cc3c2-c2ccc3c(c2)OCO3)cc1	-4%	-11%
O=C(C1=C[C@@H](c2ccc(Br)cc2)C[C@@H](OCc2ccc(CO)cc2)O1)N1CCN(Cc2ccccc2)CC1	u	u
CN(C)c1ccc(N=Nc2nccs2)cc1	u	-13%
Cc1ccc(-c2csc(NC(=O)Cn3[nH]c(=O)c4ccccc4c3=O)n2)cc1	-25%	-16%
CC(Sc1nnc(C(C)Oc2ccc(F)cc2)o1)C(=O)NCc1ccc2c(c1)OCO2 (configuration not stated)	-5%	-12%
CCN1C[C@@H]2[C@@H]3C(=O)N(Cc4ccccc4)C(=O)[C@@H]3[C@](Cc3ccccc3)(C1=O)N2C(=O)c1ccc(Br)cc1	-19%	-26%
Cc1ccc(CN(C)C(=O)c2cc(COc3ccc(F)cc3Cl)on2)o1	i	-3%
O=P1(O)CC2=C(CC=CC2)C1	i	-5%

# The listing continues:
mol	Vaccinia mCherry	VACV Venus inh
O=C(NCc1ccc(F)cc1)C1(c2cccs2)CCOCC1	-9%&-12%	-5%&-1%
COc1ccccc1C1c2[nH]c3ccccc3c2CCN1Cc1cnc(C)s1 (configuration not stated)	6%	7%
Cc1ccc(C(=O)N/N=C2\SCC(=O)N2c2cc(C)ccc2C)cc1	x	u
O=C(CN1CCC(c2nc3ccccc3[nH]2)CC1)Nc1ccc2c(c1)OCO2	-5%	-15%
O=C(Cc1ccccc1)Nc1nnc(-c2cccs2)s1	-14%	-6%
CC(C)(C)c1ccccc1O	i	-13%
COc1cc(C(=O)NCC(c2ccc3c(c2)OCO3)N2CCN(C)CC2)cc(OC)c1OC (configuration not stated)	-15%	-13%
COc1ccc(CCNC(=O)CCc2ccccc2)cc1OC	-1%	-10%

# Profiles as entered above. Order of screens: Vaccinia mCherry | VACV Venus inh
# Cc1cc(C)c(C(=O)C[n+]2cccc(C(N)=O)c2)c(C)c1 in the list: -26% | -12%
# CC(=O)Nc1ccc(NC(=O)C(C)OC(=O)CC23CC4CC(CC(Br)(C4)C2)C3)cc1 (configuration not stated) in the list: i | 9%

# At a glance, two of the compounds above.
mol	Vaccinia mCherry	VACV Venus inh
O=C(NCc1ccc(F)cc1)C1(c2cccs2)CCOCC1	-9%&-12%	-5%&-1%
COc1ccccc1C1c2[nH]c3ccccc3c2CCN1Cc1cnc(C)s1 (configuration not stated)	6%	7%

# (next part)
mol	Vaccinia mCherry	VACV Venus inh
COc1ccccc1N1C(=O)CC(Sc2nccc(C)n2)C1=O (configuration not stated)	-21%	-6%
CC1CCC2(CC1)Nc1ccccc1C(=O)N2c1ccccc1 (configuration not stated)	-10%	-19%
COCCn1c(N)c(N(Cc2ccccc2)C(=O)CN2C(=O)NC(C)(c3ccccc3)C2=O)c(=O)[nH]c1=O (configuration not stated)	i	0%
COc1ccc(C(=O)NCCCOC(=O)c2ccc(OC)cc2)cc1	-3%	-1%
C[C@H](CO)N1C[C@H](C)[C@@H](CN(C)C(=O)c2cc(-c3ccccc3)on2)OCc2cnnn2CCCC1=O	-23%	-14%
COC(=O)c1nnn(CC(=O)Nc2cc(F)ccc2F)c1C(=O)OC	1%	-2%
Cc1ccc(C2CC2C(=O)NN)cc1 (configuration not stated)	-10%	-9%
Cc1nn(CCCC(=O)NCc2ccccc2)c(=O)c2nn(-c3ccccc3)c(C)c12	-22%	-20%

# Carrying on:
mol	Vaccinia mCherry	VACV Venus inh
CCN(CC)C(=S)Oc1ccc(Cl)cc1Cl	-2%	7%
O=S(=O)(O/N=C1\CCCc2ccccc21)c1ccccc1	-6%	u
Cc1nonc1C1CCCN1Cc1nc(-c2ccc(F)cc2F)oc1C (configuration not stated)	-14%	-15%
Cc1ccc(-c2csc3ncnc(OCC(=O)NC(=O)NCc4ccco4)c23)cc1	-10%	-20%
Cc1ccc(C)c(-n2c(-c3ccc(Br)cc3)csc2=NC(=O)c2ccccc2F)c1	-10%	-10%
COC(=O)C(C)Sc1nc2c(cnn2-c2ccccc2)c(=O)[nH]1 (configuration not stated)	-13%	-3%
Cc1nc2ccccc2n1C(=O)c1cc(-c2ccc(Br)cc2)nc2ccccc12	x	-7%
COc1ccc(C(=O)c2c(-c3ccc(OC)cc3)oc3ccc(-c4cc(OC)c(OC)c(OC)c4)cc23)cc1	i	-25%

# Remaining list, next part:
mol	Vaccinia mCherry	VACV Venus inh
COc1ccc(OCc2cc(C(=O)NC(C)Cn3cncn3)no2)c(Cl)c1 (configuration not stated)	i	-23%
Cc1ccc(/C=[N+](/[O-])C2SC(=S)N(C)C2(C)C)cc1 (configuration not stated)	0%	-3%
COCCN1Cc2cccc(C(=O)Nc3ccc(C)c(F)c3)c2C1=O	-4%	-15%
Cc1cc(OCC(=O)Nc2cccc(S(=O)(=O)N3CCCC3)c2)ccc1Cl	-29%	-26%
Cc1onc(-c2ccccc2)c1C(=O)NC(=S)NNC(=O)c1ccc(O)cc1	-18%	-22%
Cc1ccc2[nH]c(CSc3nnc(NC(=O)COc4ccccc4C)s3)cc(=O)c2c1	-6%	-5%
CC1CCCCN1CC(O)COCc1ccccc1 (configuration not stated)	-14%	-9%
O=C(Nc1ccc(N2CCOCC2)c(Cl)c1)c1cccc(-n2cnnc2)c1	-9%	-6%

# Gathered by group: the entries above with a cyano group
mol	Vaccinia mCherry	VACV Venus inh
CCOC(=O)/C=c1\s/c(=C\c2ccc(C#N)cc2)c(=O)n1CC(=O)Nc1cccc(C)c1C	i	-6%
COc1cccc(Cn2cccc(NC(=O)Nc3cccc(C#N)c3)c2=O)c1	-22%	-12%

# Next part:
mol	Vaccinia mCherry	VACV Venus inh
Cc1ccc2cc3cc(C(=O)N4CCN(c5cccc(C(F)(F)F)c5)CC4)sc3nc2c1	-6%	9%
COCCNC(=O)CCCn1c(SCC(=O)c2ccc(Br)cc2)nc2c(sc3ccccc32)c1=O	-16%	-13%
O=S(=O)(c1ccccc1)N1CCC2(CC1)CO2	i	-2%
CCc1nnc(NC(=O)CC23CC4CC(CC(Br)(C4)C2)C3)s1	-7%	-6%
Nc1ccccc1-n1nc2ccc3ccccc3c2n1	-3%	-14%
CCOC(=O)c1[nH]c2ccc(Br)cc2c1NC(=O)CCN1CCC(C(=O)OCC)CC1	-8%	-26%
